Bioassay records: PubChem BioAssay, National Center for Advancing Translational Sciences (NCATS)
VACV Venus inh: qHTS for Stage-Specific Inhibitors of Vaccinia Orthopoxvirus: Venus Reporter Primary qHTS. Potency, µM (series often up to 36.5 µM), without a hit: at the highest dose activity change, negative = inhibition, usual class: inhibitors. hit rate 0.46% among 330,000. Vaccinia virus Venus reporter expression, fluorescence; active means well fitted inhibition curve with a large enough effect; inconclusive means small, poorly fitted or top-dose-only effect; inactive means no such curve, though single readings can be large or run the other way; tested in A549 cells; also: nearly all actives have a fitted effect of over 30% in size; inactives centre near -10
VACV mCherry inh: qHTS for Stage-Specific Inhibitors of Vaccinia Orthopoxvirus: mCherry Reporter Primary qHTS. Vaccinia virus mCherry reporter infection, fluorescence; about a quarter of the inactives have no number. Potency, µM (titrated, usually from 36.5 µM), inactives show top-dose activity change, negative = inhibition, most hits filed as inhibitors. hit rate 0.63% among 310,000; active = well fitted inhibition curve with a large enough effect; inconclusive = small, poorly fitted or top-dose-only effect; inactive = no such curve, though single readings can be large or run the other way; tested in A549 cells; also: nearly all actives have a fitted effect of over 35% in size; inactives centre near -10
* marks the source's active call; other numbers are inactive results; i = inactive; ? = inconclusive; / = no result given; & = joins results of further samples; [ ] = another dose, or the depositor's remark. % is scaled to controls: 0 for no effect and ±100 for the full control effect; potency is read from the fitted curve at half-maximal effect.

SMILES	VACV Venus inh	VACV mCherry inh
Cc1ccc(Cl)cc1N1CCN(C(=O)c2ccc3c(c2)CCN3S(=O)(=O)c2ccccc2)CC1	-27%	-6%
COCc1c(C(=O)OC/C(O)=C(\C#N)c2nc3ccccc3[nH]2)oc2ccccc12	5%	0%
CC(C)c1nnc(NC(=O)CCCC(=O)O)s1	-10%	/
CCN(CC)S(=O)(=O)c1cc(C(=O)Nc2cccnc2Cl)ccc1Cl	-14%	-3%
O=C(COC(=O)c1ccccc1SCC(=O)N1CCCC1)NC1CCS(=O)(=O)C1 (stereo not drawn)	-8%	-13%
COc1cccc(NC(=O)c2ccc(CN3CCOCC3)cc2)c1	1%	/
CCc1ccccc1N(C(=O)CCC(=O)Nc1cc(C)on1)C(C(=O)NC1CCCC1)c1ccco1 (stereo not drawn)	-27%	-29%
CO/N=C/NC(=O)NOCc1c(Cl)cccc1Cl	-19%	/
CCC1(CC)C(=O)N(c2ccccc2)C(=N)N(c2ccccc2)C1=O	-15%	i
COc1ccc(C2/C=C\CN(C(=O)C3CCCCC3)CC(=O)N2Cc2ccc(F)cc2)cc1 (stereo not drawn)	-5%	i
CC(CNCCCn1cnc2c(OCc3ccccc3)ncnc21)c1ccccc1 (stereo not drawn)	?	?
CC[C@]1(C(=O)OC)[C@H]2C(=O)N(C)C(=O)[C@H]2[C@H]2CN=C(SCc3ccc(C(=O)OC)cc3)N21	-13%	-18%
O=C1Nc2ccccc2N(C(=O)c2ccc(-c3ccccc3)cc2)C1c1nc2ccccc2[nH]1 (stereo not drawn)	-10%	5%
C(=NNc1nnn(Cc2ccccc2)n1)c1ccccc1	-20%	?
O=C(NCc1ccccc1C(F)(F)F)C1CC(c2ccccc2C(F)(F)F)=NO1 (stereo not drawn)	-14%	-5%
O=C(NC1CCN(C(=S)NCc2ccco2)CC1)NC12CC3CC(CC(C3)C1)C2	-23%	?
COc1cccc(NC(=O)CN(C)C(=O)C2CC3C=CC2C3)c1 (stereo not drawn)	7%	-17%
CCCCSc1nc(-c2cccc(OC)c2)nc2c1Cc1c(CO)cnc(C)c1O2	-9%	-9%
CCc1ccccc1NC(=S)N1CCC(C(=O)c2ccc(F)cc2)CC1	6%	-3%
Cc1ccc(NC(=Nc2ccc(Br)cc2)N2CCOCC2)cc1C	-4%	-10%
CCOC(=O)COc1cccc2c(=O)n(CC(=O)N3CCc4ccccc43)ccc12	-8%	?
CN(C)CCCN(C(=O)c1ccc2c(c1)CCCC2)c1nc2cc3c(cc2s1)OCO3	?	?
Cc1ncc([N+](=O)[O-])n1CC(=O)Nc1ccc(Cl)cc1	-4%	i
CCC1COCCS(=O)(=O)N1Cc1ccccc1 (stereo not drawn)	-27%&-10%	-2%&-19%
Cc1cccc(S(=O)(=O)Nc2ccc(-c3ccc4nncn4n3)cc2)c1	-13%	-28%
CCN(CC)Cc1cc2[nH]c3c4ccc(Cl)cc4ncc3c2cc1OC	?	?
CCOc1ccc(C(=O)Nc2sc3c(c2C(=O)OC)CC(C)(C)NC3(C)C)cc1	-15%	4%
COc1cc(NC(=O)/C=C/c2ccccc2[N+](=O)[O-])cc(OC)c1	-10%	-24%
CCN(c1ccccc1)S(=O)(=O)c1ccc(N2CCN(c3ccc(O)cc3)CC2)nc1	-28%	-22%
CC1CCN(c2nc(-c3ccc(F)cc3)cc(C(F)(F)F)n2)CC1	-19%	-20%
Cc1ccc(C)c(NC(=S)N2CCN(S(=O)(=O)c3ccccc3)CC2)c1	-21%	-27%
N[C@]1(C(=O)O)CC[C@@H](C(=O)O)C1 (racemic)	-3%&-7%	-8%&-16%
CCN(CC)C(=O)Cn1c(=O)c2ccccc2n2c(=S)sc(-c3cccc(C)c3)c12	-19%	i
CCOC(=O)c1ccc(-n2c(CCC(=O)O)ccc2-c2ccccc2)cc1	-7%	-11%
COCCNc1nc(-c2cc(C)c(C)cc2C)cs1	-8%	-24%
CCCOC1CCCN(Cc2cn(C)nc2-c2ccccc2F)C1 (stereo not drawn)	-12%	-6%
CCN(CC)c1ccc(NC(=O)Cn2nc3c(cc2=O)CCCC3)c(C)c1	-7%	-8%
CN(C)c1ccc(-c2nc(Nc3ccncc3)c3ccccc3n2)cc1	-24%	-25%
CCOc1ccc2nc(SCc3ccccc3C#N)sc2c1	-4%	-11%
COc1ccc(C(=O)N/N=C(/C)c2cccc(NC(=O)C(F)(F)F)c2)cc1	-7%	-3%
COC(=O)c1ccc2nc(-c3ccc(Cl)cc3)c(Cc3ccccc3OC)n2c1	0%	-4%
COc1ccc(C(C)=O)cc1CSCC(=O)O	-5%	-3%
Cc1ccc(N(C(=O)c2cccs2)C2C=CS(=O)(=O)C2)cc1 (stereo not drawn)	-7%	i
Cc1cccc(N2CCN(CCNC(=O)Nc3ccc(Cl)cc3)CC2)c1C	-10%[7.34 µM]	-10%[7.34 µM]
C(=C\c1cnc2ccccc2n1)/c1ccc2c(c1)OCO2	-8%	-21%
CC(C)COP(=O)(CNC(=O)CN1C(=O)c2ccccc2S1(=O)=O)OCC(C)C	-10%	i
CCOC(=O)c1c(C)[nH]c(C)c1S(=O)(=O)N(C)CC(=O)N1CCN(c2cccc(Cl)c2)CC1	-18%	?
Cc1cccc(C(=O)N2CCC(=O)N([C@H](COCc3cccc(C(F)(F)F)c3)Cc3ccccc3)CC2)c1	-14%	-4%
COc1ccc(Nc2ccccc2C(=O)O)cc1	-25%	-18%
CC(=C\C(=O)O)/C(=C\c1cccc2ccccc12)C(=O)O	-5%	-20%
O=C(Nc1ccc(F)cc1)c1ccc(Br)c(S(=O)(=O)N2CCOCC2)c1	-7%	18%
CC(C)c1ccc(NC(=O)C2(C)Cc3c(-c4ccccc4)ccnc3O2)cc1 (stereo not drawn)	-2%	-15%
COc1ccc(/C=C2\SC(=O)N=C2N)cc1	-12%	i
CCCCCC(=O)Nc1nnc(CCc2ccccc2)s1	-8%	i
Cc1ccccc1CNC(=O)CCC(=O)N1CCOc2ccc(Cl)cc21	-23%	-21%
CCOC(=O)c1ccc(NC(=O)CCNS(=O)(=O)c2cc(Br)cnc2N)cc1	-20%	i
Cc1c(C(=O)N(CC(C)C)c2c(N)n(Cc3ccccc3)c(=O)[nH]c2=O)sc2nc3n(c(=O)c12)CCC3	-5%	-2%
NCCC[C@@H](N)C(=O)O	-13%	i
CNc1ccccc1C(C)(C)c1cc(-c2cccc([N+](=O)[O-])c2)no1	-4%	?
O=C(Cn1cccn1)N1CCCC(N2CCN(c3cccc(C(F)(F)F)c3)CC2)C1 (stereo not drawn)	3%	-19%

Four entries from above in another layout.
Structure: CCCOC1CCCN(Cc2cn(C)nc2-c2ccccc2F)C1 (stereo not drawn)
  VACV Venus inh: -12%
  VACV mCherry inh: -6%

Structure: CN(C)c1ccc(-c2nc(Nc3ccncc3)c3ccccc3n2)cc1
  VACV Venus inh: -24%
  VACV mCherry inh: -25%

Structure: Cc1c(C(=O)N(CC(C)C)c2c(N)n(Cc3ccccc3)c(=O)[nH]c2=O)sc2nc3n(c(=O)c12)CCC3
  VACV Venus inh: -5%
  VACV mCherry inh: -2%

Structure: CC(CNCCCn1cnc2c(OCc3ccccc3)ncnc21)c1ccccc1 (stereo not drawn)
  VACV Venus inh: ?
  VACV mCherry inh: ?

Next part
SMILES	VACV Venus inh	VACV mCherry inh
O=C(COC(=O)c1cnccn1)NCc1ccc(Cl)cc1	-3%	i
S=c1[nH]cnc2sc(-c3ccccc3)cc12	-1%	-8%
CCOC(=O)CCNC(=O)N1CCC(CCC(=O)NCc2ccc(F)cc2)CC1	8%	-7%
COc1ccccc1N1CCN(C(=O)CCCn2nc(C)c([N+](=O)[O-])c2C)CC1	-8%	i
COc1ccc(-c2cc(C)no2)cc1S(=O)(=O)NCc1ccco1	-15%	-21%
CCOC(=O)C1CCCN(C(=O)COc2ccc(C(C)(C)C)cc2)CC1 (stereo not drawn)	-3%	43%[activator]
CC(=O)c1cccc(-n2c(CCC(=O)O)ccc2-c2ccc(C)cc2)c1	-2%	-11%
COc1ccc(-c2c(C#Cc3ccsc3)c3cc(-c4ccc(OC)c(F)c4)ccc3n2C)cc1	-5%	-14%
Cc1ccc(S(=O)(=O)NC(=O)Nc2nc(-c3ccc(F)c(F)c3)cs2)cc1	-24%	-23%
CN(C)c1cccc(NC(=O)CCc2ccccc2)c1	-15%	-12%
COCC(=O)Nc1ccc(Br)c(C)c1	3%	i
CN(CC(=O)Nc1ccc(Cl)cc1)CC(=O)Nc1ccc(C(N)=O)cc1	2%	i
O=C(NCCN1CCOCC1)c1ccc(Cl)c(Cl)c1	-4%	i
O=C(CSc1nc(-c2cccc(F)c2)[nH]c1-c1ccccc1)Nc1ccc2c(c1)OCCO2	?	?
CCCc1ccc(S(=O)(=O)N/N=C(/C)c2ccc3c(c2)OCO3)cc1	-12%	i
COCCn1nnnc1CN(CCc1ccccc1)Cc1cc2ccc(C)cc2[nH]c1=O	-8%	/
COC(=O)c1cc(COC(=O)c2nc3nccc(C)n3n2)oc1C	-3%	i
Cc1cccc(N(C(=O)c2csnn2)C(C(=O)NC(C)(C)C)c2cccs2)c1 (stereo not drawn)	-19%	-18%
C(=C\c1ccccc1)/CN1CCN(C(c2cc3ccccc3o2)c2nnnn2-c2ccc3c(c2)OCCO3)CC1 (stereo not drawn)	-12%	12%
C=CCn1c(SC)nnc1-c1ccc2ncccc2c1	-15%	0%
C[C@H](CO)N1C[C@H](C)[C@H](CN(C)S(=O)(=O)c2ccccc2F)OCc2cnnn2CCCC1=O	-8%	-7%
O=C(Nc1ccc(NC(=O)C2CCCCC2)nc1)c1cccc(F)c1	4%	-4%
Cc1ccccc1C(=O)NC(NC(=S)Nc1ccc(S(N)(=O)=O)cc1)C(Cl)(Cl)Cl (stereo not drawn)	-10%	i
CC(C)N(Cc1cn(C)nc1-c1cccc(Cl)c1)Cc1nccn1C	-10%	-13%
Cc1c(Cl)cccc1NC(=O)CN1CCC(NC(=O)C2CCCCC2)CC1	-14%	i
COC(=O)C(C)Oc1ccc(-c2nccc(-c3ccccn3)n2)cc1 (stereo not drawn)	-10%	i
O=C(Nc1cccc2ccccc12)c1csc(COCCO)n1	-5%	3%
COc1ccc(CNC(=O)Cn2cc([N+](=O)[O-])cn2)cc1	2%	i
CC(C)CCC(=O)N1CCC(N2CCC(C(=O)NCc3ccccn3)CC2)CC1	-1%	i
CC(=O)c1ccc(NC(=O)c2ccc(-c3ccc(Cl)cc3)o2)cc1	-19%	-23%
COCCNc1oc(-c2ccccc2Cl)nc1S(=O)(=O)c1ccc(C)cc1	-12%	-5%
CCOc1cc(C(=O)CCC(=O)OCC(=O)Nc2ccc(C)c(S(=O)(=O)N(C)C)c2)ccc1O	-9%	-3%
Cc1occc1C(=O)Nc1cc(=O)n(C)c(=O)n1C	-9%	-18%
Cc1ccc(NC(=O)CN(C)S(=O)(=O)c2cnc[nH]2)cc1	-11%	-16%
COc1ccc(N(C)C(=O)CC2(CC(=O)O)CCCCC2)cc1	-17%	/
COc1ccc(N2C(=O)NC(NS(=O)(=O)c3ccc(NC(C)=O)cc3)(C(F)(F)F)C2=O)cc1 (stereo not drawn)	-11%&-10%	-10%&-11%
COC(=O)c1ccc(Sc2ccccc2NS(=O)(=O)c2ccc(OC)cc2)nc1	-10%	-23%
CC1(C)CC(C(=O)Nc2ccccc2)C(=O)O1 (stereo not drawn)	-8%	-3%
COc1ccc(OCC(O)CNC(=O)c2ccccc2C(=O)O)cc1 (stereo not drawn)	-3%	-19%
Nc1cc(=O)nc2cn[nH]n12	-6%	i
O=C(CNC(=O)COc1ccccc1)NCc1ccccc1F	-7%	i
O=C(Cn1ncc2c3ccccc3n(Cc3ccc(F)cc3)c2c1=O)NCCC1=CCCCC1	-16%	-7%
COC(=O)C[C@@H]1C=C[C@@H](NC(=O)c2cccnc2)[C@@H](CO)O1	-6%	-10%
Cn1c(CNC(=O)c2ccco2)nnc1SCC(=O)N1c2ccccc2Sc2ccccc21	-27%	/
Cc1ccc(N(CC(=O)NCc2ccccc2)C(=O)CCC(=O)Nc2ccccn2)cc1	-6%	i
CC(CNC(=O)c1nnc(Cc2cccc(F)c2)o1)c1ccccc1 (stereo not drawn)	-17%	-23%
Cc1ccccc1-c1ccc(C(=O)Nc2cccc(F)c2)o1	-13%	i

Grouped by structure, the entries above containing a furan ring, fused or not
SMILES	VACV Venus inh	VACV mCherry inh
COCc1c(C(=O)OC/C(O)=C(\C#N)c2nc3ccccc3[nH]2)oc2ccccc12	5%	0%
CCc1ccccc1N(C(=O)CCC(=O)Nc1cc(C)on1)C(C(=O)NC1CCCC1)c1ccco1 (stereo not drawn)	-27%	-29%
O=C(NC1CCN(C(=S)NCc2ccco2)CC1)NC12CC3CC(CC(C3)C1)C2	-23%	?
COc1ccc(-c2cc(C)no2)cc1S(=O)(=O)NCc1ccco1	-15%	-21%
COC(=O)c1cc(COC(=O)c2nc3nccc(C)n3n2)oc1C	-3%	i
C(=C\c1ccccc1)/CN1CCN(C(c2cc3ccccc3o2)c2nnnn2-c2ccc3c(c2)OCCO3)CC1 (stereo not drawn)	-12%	12%
CC(=O)c1ccc(NC(=O)c2ccc(-c3ccc(Cl)cc3)o2)cc1	-19%	-23%
Cc1occc1C(=O)Nc1cc(=O)n(C)c(=O)n1C	-9%	-18%
Cn1c(CNC(=O)c2ccco2)nnc1SCC(=O)N1c2ccccc2Sc2ccccc21	-27%	/
Cc1ccccc1-c1ccc(C(=O)Nc2cccc(F)c2)o1	-13%	i
